Mtb growth: Mycobacterium tuberculosis H37Rv growth inhibition, putative kinase inhibitor library, confirmatory dose response (AID 2842) | M. tuberculosis H37Rv growth inhibition; higher % means a stronger effect; some inactives read as strong as hits | one-dose inhibition, % at 10 µg/mL; IC90 in µg/mL for titrated hits | hit rate 5.2% among 24,000;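 active = confirmed in a dose series; about a fifth of its hits are not listed in these tables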;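 note: bacteria incubated one week before Alamar blue readout; 0% = bacteria only wells and 100% = bacteria with high antibiotic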
* hit, by the source's call. The list is partial; rates above refer to the full screens.

Sample of the layout, two compounds:
canonical_smiles | Mtb growth
CC1CCCN(S(=O)(=O)c2ccc(C(=O)Nc3ccccc3C#N)cc2)C1 (stereo unspecified) | 0.2%
COc1ccc(-c2nnc3c4cc(OC)c(OC)cc4n(Cc4cccc(F)c4)cc2-3)cc1 | 12.7%

The list itself, from the start:
canonical_smiles | Mtb growth
CC1CCCN(S(=O)(=O)c2ccc(C(=O)Nc3ccccc3C#N)cc2)C1 (stereo unspecified) | 0.2%
COc1ccc(-c2nnc3c4cc(OC)c(OC)cc4n(Cc4cccc(F)c4)cc2-3)cc1 | 12.7%
COC(=O)c1ccc(Nc2ncnc(N)c2[N+](=O)[O-])cc1 | -0.6%
CC1CCCN(S(=O)(=O)c2ccc(C(=O)Nc3nc4c(s3)CSc3ccccc3-4)cc2)C1 (stereo unspecified) | 3.6%
Cc1ccc(NC(=O)c2oc3ccccc3c2NC(=O)c2c(F)cccc2Cl)cc1C | 4.7%
COc1ccc(C(=O)Nc2sc3c(c2C(N)=O)CC(C)CC3)cc1 (stereo unspecified) | -0.9%
Cc1cccc(NC(=O)CS(=O)(=O)c2cn(Cc3ccc(F)cc3)c3ccccc23)c1 | 98.1%
Cc1cccc(NCC(=O)Nc2ncc(Cc3ccccc3F)s2)c1 | 4.5%
NC(=O)c1nc(-c2ccc(Cl)cc2)nc2c1[nH]c(=O)n2-c1ccc(F)cc1 | -1.2%
O=C(CCCn1c(=O)c2sccc2n(CC(=O)Nc2ccc(F)cc2)c1=O)NCc1ccccc1 | 2.7%
Cn1c(=O)c2c(SCC(=O)NC3CCCC3)ccnc2n(C)c1=O | -6.5%
CCOC(=O)C(=O)Nc1c(C(=O)Nc2ccc(Cl)cc2)oc2ccccc12 | 2.7%
COc1cccc(-n2c(=O)[nH]cc(C(=O)Nc3cc([N+](=O)[O-])ccc3OC)c2=O)c1 | -2.4%
CC1CCCN(S(=O)(=O)c2ccc(C(=O)Nc3nc(-c4ccc(Cl)cc4)cs3)cc2)C1 (stereo unspecified) | -11.0%
COc1ccccc1NC(=O)CSc1nnc(Cc2ccc(C(C)C)cc2)c(=O)n1N | 14.8%
CCOC(=O)c1nn(-c2ccc(OC)cc2)c(=O)c2c(NC(=O)c3c(F)cccc3F)scc12 | 0.1%
Cn1c(=O)c2c(nc(Cl)n2CC(=O)c2ccc(Cl)cc2)n(C)c1=O | 15.1%
O=C(CN1C(=O)c2ccccc2C1=O)Nc1nc(-c2nc3ccccc3s2)cs1 | 2.8%
COc1ccc(C(=O)Nc2nc3c(s2)CCCC3)c(OC)c1 | 6.13µg/mL*
Cc1ccc(C)c(NC(=O)CSc2nc3c(c(=O)n2-c2ccc(Cl)cc2)SCC3)c1 | -9.0%
COc1cccc(OC)c1C(=O)Nc1c2c(nn1-c1ccc(F)cc1)CS(=O)C2 (stereo unspecified) | -6.7%
O=C(COC(=O)c1ccc2ccccc2n1)c1ccc(Cl)c(Cl)c1 | -8.4%
CC1(C)OC2OC(C(=O)Oc3ccc([N+](=O)[O-])cc3)C3OC(C)(C)OC3C2O1 (stereo unspecified) | 3.8%
COc1ccc(CC(=O)Nc2c3c(nn2-c2ccccc2C)CS(=O)C3)cc1 (stereo unspecified) | -6.5%
CCOC(=O)c1[nH]c2ccccc2c1NC(=O)c1ccc(N2C(=O)CCC2=O)cc1 | 3.3%
CCOC(=O)c1nn(-c2ccc(C(F)(F)F)cc2)c(=O)c2c(NC(=O)c3ccc(S(=O)(=O)N4CCCC4)cc3)scc12 | 4.5%
COc1ccc(Br)cc1-c1nc(C(N)=O)c2[nH]c(=O)n(-c3ccc(C)c(C)c3)c2n1 | -8.2%
O=C(Nc1c(C(=O)Nc2ccc([N+](=O)[O-])cc2)oc2ccccc12)c1ccc([N+](=O)[O-])cc1 | -0.8%
CC(=O)N1CCc2c(sc(NC(=O)c3cc4cc([N+](=O)[O-])ccc4s3)c2C#N)C1 | 2.0%
N#Cc1c(N)nc(SCC(=O)c2ccc(Br)cc2)c(C#N)c1-c1ccccc1 | 10.9%
COc1cc2c3nnc(-c4ccccc4)c-3cn(Cc3ccc(C)cc3)c2cc1OC | 11.0%
COc1ccc2nc(N3CCCCC3)sc2c1 | 8.7%
COc1ccc(Cl)cc1N1C(=O)NC2CC1(C)Oc1ccc([N+](=O)[O-])cc12 (stereo unspecified) | 16.5%
O=C(Nc1ccc(S(=O)(=O)N2CCc3ccccc32)cc1)c1cccs1 | -6.3%
CCOc1ccc(C2CC(=O)NC(SCC)=C2C#N)cc1 (stereo unspecified) | 5.3%
Cc1cccc(N2C(=O)c3ccc(C(=O)OCC(=O)Nc4ccccc4C(C)C)cc3C2=O)c1C | -5.7%
CCOc1cc(-c2nnc(NC(=O)c3cccc(F)c3)o2)cc(OCC)c1OCC | 93.5%
Nc1nc(SCC(=O)N2CCc3ccccc32)[nH]c(=O)c1NC(=O)c1ccc(Cl)cc1 | 1.5%
O=C(Nc1ccc(S(=O)(=O)N2CCCCC2)cc1)c1cc2cc(Cl)ccc2oc1=O | -22.2%
CCOC(=O)COc1cccc2c(=O)n(CC(=O)Nc3cc(Cl)ccc3OC)ccc12 | 7.2%
NC(=O)c1oc2ccccc2c1NC(=O)C1CC(=O)N(c2ccc(Cl)cc2)C1 (stereo unspecified) | 3.15µg/mL*
Cc1cc(Nc2ccccc2)n2ncc(-c3ccccc3)c2n1 | 4.6%
OCCN1CCN(CC(O)COc2ccc(Br)cc2)CC1 (stereo unspecified) | 0.0%
COc1ccc(Nc2nc(Nc3ccc(OC)c(Cl)c3)nc3nccnc23)cc1 | 5.4%
COc1cccc(Nc2nc3ccc(F)cc3s2)c1 | 29.6%
Cc1ccc(C(c2sc3ncnn3c2O)N2CCC(O)CC2)cc1 (stereo unspecified) | -4.8%
O=C(Nc1nnc(-c2ccccc2)s1)c1cccc(Cl)c1 | 2.4%
Cc1ccc([N+](=O)[O-])cc1NNC1=NC(C)COC1=O (stereo unspecified) | 72.8%
O=C(CSc1nc2c([nH]c3ccccc32)c(=O)n1-c1cccc(Cl)c1)Nc1ccc([N+](=O)[O-])cc1 | 0.6%
CCOC(=O)c1c(NC(=O)CCl)sc2c1CCCC2 | 29.8µg/mL*
O=C(CN1C(=O)CC(c2ccco2)Sc2ccccc21)NC1CCCCC1 (stereo unspecified) | 4.2%
CCN1C(=O)CCc2cc(NS(=O)(=O)c3ccc(OCC(C)C)cc3)ccc21 | 18.3µg/mL*
O=C(Nc1nnc(-c2ccccc2Cl)s1)c1ccccc1C(F)(F)F | 3.1%
CCCCOc1ccc(C(=O)Nc2nc3ccc4nc(C)sc4c3s2)cc1 | 10.3%
O=C(CS(=O)(=O)c1cn(Cc2cccc(F)c2)c2ccccc12)Nc1ccc2c(c1)OCO2 | -11.1%
CCOC(=O)c1sc2nc(NC(=O)c3ccccc3OC)sc2c1C | 4.3%
NC(=O)c1oc2ccccc2c1NC(=O)c1ccccc1I | -4.5%
CCOC(=O)c1sc(NC(=O)c2ccc(Cl)s2)c(SC#N)c1C | 4.8%
Cc1ccc(S(=O)(=O)Nc2cccc(C(=O)CC3(O)C(=O)Nc4ccc(Br)cc43)c2)cc1 (stereo unspecified) | 11.3%
O=C(CN1C(=O)c2ccccc2S1(=O)=O)Nc1ccc(F)c([N+](=O)[O-])c1 | -3.7%

Continuation.
| SMILES | Mtb growth |
| --- | --- |
| CCOC(=O)c1oc2ccccc2c1NC(=O)c1ccccc1[N+](=O)[O-] | 1.2% |
| O=C(CSc1c(-c2ccccc2)[nH]c2ccccc12)NCc1ccco1 | 8.8% |
| Cc1cc(C)c(NC(=O)CSc2nncc(=O)n2N)c(C)c1 | 30.4% |
| Cc1cc(NC(=O)c2ccccc2F)nc2c1c(=O)oc1ccccc12 | -3.4% |
| CCOc1ccc(C(=O)NN2C(=O)/C(=C\c3ccc(O)c(OCC)c3)SC2=S)cc1 | -1.1% |
| Nc1ncnc(Nc2cccc3c2CCCC3)c1[N+](=O)[O-] | 2.2% |
| Cc1ccc(C)c(Cn2cc(SCC(=O)N3CCOCC3)c3ccccc32)c1 | 11.3% |
| c1ccc(N2CCN(c3nc4cc5c(cc4s3)OCO5)CC2)cc1 | -7.9% |
| O=C(CSc1ccc(-c2cccc([N+](=O)[O-])c2)nn1)NCc1ccc2c(c1)OCO2 | -3.6% |
| O=C1C(=O)N(Cc2cccnc2)C(c2ccccn2)/C1=C(/O)c1ccccc1 (stereo unspecified) | -19.7% |
| CC(=O)N1CCc2c(sc(NC(=O)c3ccc(Br)s3)c2-c2nc3ccccc3s2)C1 | 5.1% |
| O=C(NC1CCCCCC1)c1ccc(Cn2c(=O)[nH]c3ccsc3c2=O)cc1 | 1.8% |
| COc1ccc(-c2nnc(SCCC(=O)O)n2-c2ccccc2)cc1OC | -11.8% |
| CC(C)(C)C(=O)Nc1nnc(-c2ccc(Br)cc2)o1 | <0.2µg/mL* |
| CCOC(=O)c1nn(-c2ccc(Cl)cc2)c(=O)c2c(NC(=O)CCc3ccccc3)scc12 | -3.3% |
| Cc1cc(NC(=O)c2cc3ccccc3oc2=O)nc2c1c(=O)oc1ccccc12 | 4.6% |
| Cc1cccc(Cn2cnc3c(nnn3-c3cc(C)cc(C)c3)c2=O)c1 | 16.8% |
| COCCn1ccc2c(OCC(=O)Nc3cc(Cl)ccc3OC)cccc2c1=O | -7.3% |
| Cc1cc(NC(=O)CSc2ccc3nnc(-c4ccccc4)n3n2)no1 | -7.6% |
| COc1ccc(-n2c(=O)[nH]c3c(C(N)=O)nc(-c4cccc(C(F)(F)F)c4)nc32)c(OC)c1 | -4.8% |
| Cc1nnc(SCC(=O)Nc2ccccc2)n(N)c1=O | -3.6% |
| O=C(NCC(c1cccnc1)N1CCN(c2ccccc2)CC1)c1ccc([N+](=O)[O-])cc1 (stereo unspecified) | -4.5% |
| CCOc1ccc2c(c1)c(=O)c(C(=O)c1ccc(C)cc1)cn2Cc1ccc(OC)cc1 | 60.5% |
| COC(=O)c1ccc(CSc2nc(N)cc(=O)[nH]2)cc1 | -2.3% |
| CCOC(=O)CSc1nc2sc3c(c2c(=O)[nH]1)CCCC3 | -19.7% |
| CCN1CCN(C(c2ccco2)c2sc3nc(C)nn3c2O)CC1 (stereo unspecified) | -10.2% |
| Cc1ccc(-n2nc3c(c2NC(=O)c2ccc4c(c2)OCO4)CSC3)cc1 | 2.9% |
| CCc1nnc(NC(=O)CSc2nc3c(c(=O)n2-c2ccc(Cl)cc2)SCC3)s1 | 7.4% |
| O=C(O)c1c[nH]c2ccccc2c1=O | 9.2% |
| Cc1ccc2oc(C(=O)NC3CCS(=O)(=O)C3)c(C)c2c1 (stereo unspecified) | -7.2% |
| Cc1ccc(CNC(=O)CSc2nnc3ccc(-c4ccccc4)nn23)cc1 | -12.4% |
| O=C(CSc1nnc2ccc(-c3ccncc3)nn12)Nc1cccc(C(F)(F)F)c1 | -6.8% |
| CN1C(=O)c2cccc(NC(=O)c3cccc(N4C(=O)CCC4=O)c3)c2C1=O | -10.2% |
| CN1CCN(c2nc3c(c(=O)[nH]c(=O)n3C)n2CCCSc2nnnn2-c2ccccc2)CC1 | 1.0% |
| CC(C)(C)c1cc(O)c2oc(=O)c(S(=O)(=O)c3ccccc3)cc2c1 | -27.0% |
| COc1ccc(S(=O)(=O)c2cn(Cc3ccccc3Cl)c3ccc(F)cc3c2=O)cc1 | 6.1% |
| O=C(Nc1cc(=O)[nH]c(=O)[nH]1)c1ccc(Cl)cc1Cl | 3.8% |
| Nc1c(C(=O)Nc2ccc(Cl)cc2Cl)c2ccccn2c1C(=O)c1cccs1 | -16.9% |
| CCOC(=O)c1nn(-c2ccccc2)c(=O)c2c(NC(=O)c3ccc(F)cc3)scc12 | -9.6% |
| Cn1cnnc1Sc1nc2c(c(=O)n(C)c(=O)n2C)n1Cc1ccccc1Cl | -9.1% |
| COc1ccc(-c2csc(NC(=O)c3cc(-c4ccccc4)nc4ccccc34)n2)cc1OC | 8.9% |
| NS(=O)(=O)c1ccc(CNS(=O)(=O)c2ccc(Cl)cc2)cc1 | 4.8% |
| COc1cccc(C(=O)NNc2nc3c(C)cccc3s2)c1 | 11.6µg/mL* |
| COc1ccc2c(c1)c1nnc(-c3ccc(F)cc3)c-1cn2Cc1cccc(C)c1 | 8.5% |
| CCC(C)Sc1nc2c(c(=O)[nH]c(=O)n2C)n1CC(O)COc1ccccc1 (stereo unspecified) | 17.8% |
| O=C(Nc1nnc(-c2ccc(Cl)cc2)s1)c1ccc(Cl)cc1 | -5.3% |
| O=C(NCCN1CCOCC1)C(=O)Nc1cc2c3c(c1)CCC(=O)N3CCC2 | -7.9% |
| O=C(Nc1ccccc1)c1oc2ccccc2c1NC(=O)c1c(F)cccc1Cl | 11.5% |
| CC(Cl)C(=O)Nc1nnc(C23CC4CC(CC(C4)C2)C3)s1 (stereo unspecified) | 12.2% |
| CC(C)N1CCc2c(sc(NC(=O)c3ccc(Cl)s3)c2C(N)=O)C1 | 4.7% |

New compounds follow.
| SMILES | Mtb growth |
| --- | --- |
| FC(F)(F)c1cccc(-c2nnn3c2nc(NCCc2ccc(Cl)cc2)c2ccccc23)c1 | -7.0% |
| CC(=O)c1cccc(N/C=C(\C#N)c2nc(-c3ccc4c(c3)OCO4)cs2)c1 | -5.7% |
| COc1ccc(N2CC(NC(=O)NCC3COc4ccccc4O3)CC2=O)cc1 (stereo unspecified) | 3.0% |
| Cc1ccc(NC(=O)CSc2nc3c(oc4ccccc43)c(=O)n2Cc2ccc(F)cc2)c(C)c1 | -2.7% |
| O=c1nc(N/N=C/c2cccnc2)cn[nH]1 | -2.0% |
| Cc1ccc2cc(CCNC(=O)COc3ccc(Cl)cc3Cl)c(=O)[nH]c2c1C | 0.0% |
| Cn1c(=O)c2c(SCc3ccc([N+](=O)[O-])cc3)nc(-c3cccs3)nc2n(C)c1=O | 18.1% |
| Cc1ccc(C(=O)Nc2nnc(-c3ccc(F)cc3)s2)cc1C | 5.3% |
| CC1CCN(C(=O)CSc2nc3c(cnn3-c3ccccc3)c(=O)[nH]2)CC1 | -2.0% |

4 of the compounds above, field by field.
> Cc1ccc(NC(=O)CSc2nc3c(oc4ccccc43)c(=O)n2Cc2ccc(F)cc2)c(C)c1
  Mtb growth = -2.7%
> CC(=O)c1cccc(N/C=C(\C#N)c2nc(-c3ccc4c(c3)OCO4)cs2)c1
  Mtb growth = -5.7%
> Cc1ccc(C(=O)Nc2nnc(-c3ccc(F)cc3)s2)cc1C
  Mtb growth = 5.3%
> Cc1ccc2cc(CCNC(=O)COc3ccc(Cl)cc3Cl)c(=O)[nH]c2c1C
  Mtb growth = 0.0%
